PV pol inh = poliovirus RdRp elongation inhibitors, primary screen, biochemical, fluorescence polarization, total intensity; poliovirus polymerase elongation; stronger effect = lower value; % elongation, % (compound at 16.7 µg/mL); 0.66% of 150,000 active; AID 588519, 2011; in the data active = % elongation below about 90%; note: some results filed as inactive read as strong as hits
Target sequence (P03300 1749-2209 limits assumed): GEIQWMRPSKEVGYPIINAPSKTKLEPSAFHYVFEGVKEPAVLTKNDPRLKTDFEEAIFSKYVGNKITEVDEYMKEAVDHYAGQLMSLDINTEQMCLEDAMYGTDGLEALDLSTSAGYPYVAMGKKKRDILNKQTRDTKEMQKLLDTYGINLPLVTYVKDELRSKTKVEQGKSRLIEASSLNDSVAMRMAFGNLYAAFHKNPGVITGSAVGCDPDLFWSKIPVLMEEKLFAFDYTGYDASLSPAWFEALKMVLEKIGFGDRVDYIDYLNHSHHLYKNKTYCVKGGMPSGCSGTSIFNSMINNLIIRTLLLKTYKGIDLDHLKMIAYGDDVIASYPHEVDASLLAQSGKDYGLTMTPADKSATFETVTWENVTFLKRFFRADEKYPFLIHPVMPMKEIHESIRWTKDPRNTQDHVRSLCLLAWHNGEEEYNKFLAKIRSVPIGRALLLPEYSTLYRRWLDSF
Mtb MenB inh = M. tuberculosis MenB inhibitors, primary screen, biochemical, absorbance | AID 540299, 2011 | MenB enzyme assay, absorbance read-out; some hits fall short of the stated cut | 0.43% of 100,000 active | inhibition, %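 (about 12 µg/mL by stock and volumes)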 | 1,4-dihydroxy-2-naphthoyl-CoA synthase (Mycobacterium tuberculosis (strain ATCC 25618 / …;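 active = mean of two replicates above 30%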;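 note: 0% = no compound and 100% = wells with inactive enzyme; the first replicate is given; strong numbers were not always called active; inactives centre near -10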
Target sequence (P9WNP5 whole entry, looked up): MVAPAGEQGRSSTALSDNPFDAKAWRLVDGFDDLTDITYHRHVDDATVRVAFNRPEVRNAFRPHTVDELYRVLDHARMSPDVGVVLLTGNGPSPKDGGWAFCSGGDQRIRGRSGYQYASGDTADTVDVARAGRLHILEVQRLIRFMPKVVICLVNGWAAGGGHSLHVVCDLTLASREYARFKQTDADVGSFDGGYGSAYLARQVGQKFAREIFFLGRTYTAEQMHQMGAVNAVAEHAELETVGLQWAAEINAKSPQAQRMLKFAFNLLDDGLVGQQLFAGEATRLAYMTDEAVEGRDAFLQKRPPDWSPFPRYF
MbtI inh = MbtI salicylate synthase inhibitors, primary screen, biochemical, fluorescence intensity; P9WFX0; purified MbtI enzyme, fluorescence intensity read-out; inhibition, %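 (about 17 µg/mL by stock and volumes)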; 0.89% of 100,000 active; AID 493033, 2011;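 active = above 50% in both replicates, above 80% if mildly self-fluorescent; inactive = the rest, strongly fluorescent compounds included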;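 note: 0% = mean of negative and 100% = mean of positive controls; one replicate is shown; some compounds called inactive have numbers as strong as hits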
PV pol inh intensity = also measured in PV pol inh; calls as there; % elongation; measured here: total intensity read-out; formula for this scale not given here;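 total fluorescence in place of polarization; lower means less elongation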
* hit, by the source's call; x = no result given; & = joins results of further samples.

Codes – A = PV pol inh; B = PV pol inh intensity; C = Mtb MenB inh; D = MbtI inh
CC(C)(C)c1cc2ncnc(NNC(=O)c3cccs3)c2s1
  A = 104	B = 104	C = -32	D = -10
N=c1c2c3c(sc2ncn1CCCn1ccnc1)CCCCC3
  A = 101	B = 103	C = -7	D = 6
COC(=O)c1c(NC(=S)NCCn2cc(Br)cn2)sc2c1CCC2
  A = 99	B = 101	C = -33	D = 26
CSc1cccc(NC(=O)CSc2ncn(-c3ccccc3)n2)c1
  A = 101	B = 100	C = -19	D = 14
CN(c1ccccc1)n1c(-c2ccccc2)nc2ccccc2c1=O
  A = 102	B = 103	C = -10	D = -13
CCC(=O)c1cn(CC(N)=O)c2ccccc12
  A = 101	B = 103	C = 12	D = 30
CC1(C)CC2(CCCN(CCC(O)(c3ccccc3)c3ccccc3)C2)CCO1 (configuration not stated)
  A = 105	B = 109	C = -2	D = x
CC1(C)CC(=O)C2=C(C1)OC(N)=C(C#N)C21C(=O)N(CO)c2ccccc21 (configuration not stated)
  A = 104	B = 110	C = -13	D = -8
NNC(=O)CS(=O)(=O)Cc1ccc(-c2csnn2)cc1
  A = 103	B = 110	C = -15	D = -4
Cc1cc(N2CC(C)CC(C)C2)nc2ccc(NC(=O)CCC(=O)Nc3ccc(F)cc3Cl)cc12 (configuration not stated)
  A = 99	B = 98	C = -17	D = 54
Cc1c(-c2ccnn2S(C)(=O)=O)sc2ccc(Cl)cc12
  A = 104	B = 105	C = -9	D = -15
CCOc1ccc(S(=O)(=O)n2ccc(C)n2)c2ccccc12
  A = 104	B = 102	C = -6	D = -4
O=C(CSC1CCCCC1)c1ccc(Br)cc1
  A = 105	B = 106	C = 2	D = x
CC1CCN(C(=O)C2CC(c3ccccc3F)=NO2)CC1 (configuration not stated)
  A = 100	B = 104	C = -14	D = -10
CCn1cc(CN(C(=O)Nc2cccc(OC)c2)C2CCCCC2)c2ccccc21
  A = 105	B = 103	C = -34	D = 11
CCNS(=O)(=O)c1csc(C(N)=O)c1
  A = 100	B = 102	C = -27	D = -25
CC1=CC(C)C(CN2CCOC2C(C)C)C(C)C1 (configuration not stated)
  A = 103	B = 97	C = x	D = -2
CCCCn1nnc(NC(=O)COc2ccc(Cl)c(C)c2)n1
  A = 101	B = 100	C = -4	D = -10
Cc1ccc2c(CC(=O)NNc3c(F)c(F)c(F)c(F)c3F)coc2c1
  A = 101	B = 102	C = 4	D = -9
CC1(C)CC(=O)C(C=NCc2ccc3c(c2)OCO3)=C(O)C1
  A = 102	B = 102	C = -9	D = 12
Cc1ccc(C)c(S(N)(=O)=O)c1
  A = 102	B = 102	C = 9	D = -9
CCOC(=O)C1C(=O)NC(N2CCc3ccccc32)=NC1c1ccccc1 (configuration not stated)
  A = 104	B = 102	C = -30	D = 1
FC(F)(F)c1cc(Oc2ccc(Cl)cc2)c2cc(Cl)ccc2n1
  A = 105	B = 104	C = 6	D = 3
O=C(NCc1ccco1)C1CCC(C(=O)NCc2ccco2)CC1 (configuration not stated)
  A = 101	B = 102	C = -14	D = 0
Cc1cc2[nH]c(=O)c(=O)[nH]c2cc1S(=O)(=O)N1CCc2ccccc2C1
  A = 99	B = 92	C = -25	D = -49

More results.
Codes – A = PV pol inh; B = PV pol inh intensity; C = Mtb MenB inh; D = MbtI inh
COc1ccc(N(CCC#N)S(=O)(=O)c2cccc3nsnc23)cc1
  A = 103	B = 102	C = -7	D = 8
Cc1ccc(NC(=O)CN2C(=O)CSCC2=O)cc1
  A = 104	B = 107	C = -3	D = -1
CCCCn1c(SC(C)C(N)=O)nc2cc(S(N)(=O)=O)ccc21 (configuration not stated)
  A = 102	B = 104	C = 6	D = -2
Cc1cc(C)c(OCC(O)Cn2cc(/C=N/O)c3ccccc32)c(C)c1 (configuration not stated)
  A = x	B = x	C = -15	D = -7
CS(=O)(=O)c1ncc(Cl)c(C(=O)NCCc2ccc(S(N)(=O)=O)cc2)n1
  A = 102	B = 99	C = 16	D = -10
O=C(CC(NCc1ccccc1)c1ccccc1O)NCc1ccccc1 (configuration not stated)
  A = 104	B = 97	C = -9	D = x
CN(CC(=O)c1c(N)n(C)c(=O)n(C)c1=O)Cc1nc2ccccc2c(=O)[nH]1
  A = 103	B = 112	C = -30	D = -8
COc1ccc(CC(=O)N2CCC(c3ccccc3)C2)cc1 (configuration not stated)
  A = 102	B = 106	C = -14	D = -9
CCOC(=O)N1CCN(C(=O)c2cnn3ccccc23)CC1
  A = 98	B = 95	C = -16	D = 14
Cc1c(C(=O)N2CCCC2)oc2ccc3c(c12)C(O)CC1(CCCCC1)O3 (configuration not stated)
  A = 101	B = 103	C = 3	D = 1
Cc1ccc(C2C(C#N)=C(N)N(N3CCOCC3)C3=C2C(=O)CC(C)(C)C3)cc1 (configuration not stated)
  A = 103	B = 102	C = -5	D = -1
Cc1ccc(-n2nc(C)cc2N)cc1
  A = 99	B = 102	C = -32	D = 6
O=c1oc(-c2cc3c(s2)CCC3)nn1CCN1CCCC1
  A = 101	B = 100	C = -19	D = 90
CN(c1ccnc(C(=O)NCc2ccccn2)c1)S(=O)(=O)c1ccccc1
  A = 101	B = 103	C = -33	D = -10
CCNC(=O)CC1C(=O)N(c2ccc(F)cc2)C(=O)N1Cc1ccc(F)cc1 (configuration not stated)
  A = 102	B = 101	C = -21	D = -6
CN1CCN(NC(=O)c2csc3ccccc23)CC1
  A = 101	B = 103	C = 5	D = 0
Cn1c(=O)cc(Nc2ccc(F)c(Cl)c2)c2ccccc21
  A = 103	B = 106	C = 7	D = 1
COc1ccccc1C(CC(=O)NC1CCOC(C)(C)C1)c1ccc(OC(C)C)cc1 (configuration not stated)
  A = 103	B = 108	C = -13	D = -2
O=C1C2C3C=CC(C3)C2C(=O)N1c1ccc(-c2nc3ccccc3o2)cc1 (configuration not stated)
  A = 102	B = 101	C = -14	D = 11
COc1cccc(C2=NOC(C(=O)Nc3ccc4c(c3)OCO4)C2)c1 (configuration not stated)
  A = 100	B = 105	C = -7	D = -3
COc1ccc(/C=C/C(=O)Nc2ccc(N3CCOCC3)c(Cl)c2)cc1
  A = 102	B = 96	C = 9	D = 2
Cc1nc2nc(C3CCN(C(=O)OC(C)(C)C)CC3)nn2c(C)c1CCC(=O)O
  A = 102	B = 99	C = 9	D = -1
COc1ccc(N=Nc2c(C)nn(-c3ccc(C)cc3)c2N)cc1OC
  A = 101	B = 106	C = -130	D = -2
CCC(C)NC(=O)c1csc2c1CCCC2 (configuration not stated)
  A = 103	B = 99	C = -13	D = -19
COC(=O)C(C(C)C)N1C(=O)C2C3C=CC(C3)C2C1=O (configuration not stated)
  A = 103	B = 107	C = -7	D = -16

Three compounds from above, arranged by length of the SMILES, ascending.
Codes – A = PV pol inh; B = PV pol inh intensity; C = Mtb MenB inh; D = MbtI inh
COc1cccc(C2=NOC(C(=O)Nc3ccc4c(c3)OCO4)C2)c1 (configuration not stated)
  A = 100	B = 105	C = -7	D = -3
Cc1ccc2c(CC(=O)NNc3c(F)c(F)c(F)c(F)c3F)coc2c1
  A = 101	B = 102	C = 4	D = -9
CCn1cc(CN(C(=O)Nc2cccc(OC)c2)C2CCCCC2)c2ccccc21
  A = 105	B = 103	C = -34	D = 11

Laid out differently: three of the compounds above.
Values run as follows: PV pol inh, PV pol inh intensity, Mtb MenB inh, MbtI inh
Cc1ccc(C2C(C#N)=C(N)N(N3CCOCC3)C3=C2C(=O)CC(C)(C)C3)cc1 (configuration not stated)
→ 103, 102, -5, -1
Cc1ccc(-n2nc(C)cc2N)cc1
→ 99, 102, -32, 6
O=c1oc(-c2cc3c(s2)CCC3)nn1CCN1CCCC1
→ 101, 100, -19, 90

(list continues)
Codes – A = PV pol inh; B = PV pol inh intensity; C = Mtb MenB inh; D = MbtI inh
Cc1ccc2[nH]cc(CCNS(C)(=O)=O)c2c1
  A = 102	B = 104	C = 26*	D = 14
Cn1c(=O)cc(OCC(=O)N2CCC(N3CCCCC3)CC2)c2ccccc21
  A = 103	B = 103	C = -12	D = -4
COc1cc(OC)c(OC)cc1/C=N/NC(N)=O
  A = 100	B = 95	C = -15	D = 128
CCOC(=O)C1CCN(C(=O)COc2cc(=O)n(C)c3ccccc23)CC1
  A = 101	B = 103	C = -1	D = 6
COc1cc(NC(=S)NC(C)c2cn(C)nc2C)cc(OC)c1 (configuration not stated)
  A = 102	B = 103	C = -13	D = -14
O=C(C1CCC1)N1CCC(Oc2nnc(-c3ccccc3)o2)CC1
  A = 101	B = 103	C = -6	D = 4
CCCSc1nc2cn(CC)nc2c(=O)n1Cc1ccccc1
  A = 102	B = 102	C = -32	D = -18
CC(OC(=O)c1ccncc1)C(=O)Nc1ccc(Cl)cc1Cl (configuration not stated)
  A = 103	B = 100	C = 16	D = 10
Cc1ccc(-c2nc(CN(C)C)cc(CN(C)C)c2O)cc1
  A = 100	B = 99	C = -55	D = 90
COCCNC(=O)c1nc(-c2ccc(C(F)(F)F)cc2)no1
  A = 103	B = 103	C = -24	D = -15
NC(=O)/C(=C/c1ccc2c(c1)OCO2)NC(=O)c1ccc(Br)cc1
  A = 101	B = 96	C = 2	D = 6
NC(=O)c1c(C(F)(F)F)cc(-c2ccccc2)nc1NCCO
  A = 101	B = 104	C = 1	D = 75
Cc1ccccc1NC(=S)NCc1cccn1C
  A = 99	B = 102	C = -14	D = -14
COCCN1Cc2cccc(C(=O)NCc3cccnc3)c2C1=O
  A = 101	B = 103	C = -15	D = -6
O=C(O)c1ccc(N2C(=O)C3C4c5ccccc5C(CO)(c5ccccc54)C3C2=O)cc1 (configuration not stated)
  A = 101	B = 102	C = 19	D = 4
CC(C)N(CC(N)=O)Cc1ccc(-c2ccccc2)cc1
  A = 106	B = 122	C = -5	D = 4
O=C(c1cc(C(F)(F)F)cc(C(F)(F)F)c1)N1CCN(Cc2ccc3c(c2)OCO3)CC1
  A = 104	B = 95	C = 16	D = 8
COc1cc(Cl)c(C)cc1NC(=O)COC(=O)c1n[nH]c2ccccc12
  A = 108	B = 114	C = -13	D = 12
COCC(C)Nc1nc(-c2ccccc2F)cs1 (configuration not stated)
  A = 101	B = 104	C = 3	D = 13
COc1ccc(OC)c(S(=O)(=O)NCC(c2ccc(F)cc2)N2CCN(C)CC2)c1 (configuration not stated)
  A = 102	B = 103	C = -34	D = -4
CCN(CC(=O)Nc1ccc(OC)cc1)CC(=O)Nc1ccc(C(N)=O)cc1
  A = 101	B = 101	C = -92	D = 0
NCC(c1ccccc1)N1CCOCC1 (configuration not stated)
  A = 108	B = 106	C = 3	D = x
CC(C)n1c(NC(=O)Nc2ccccc2)c2ccccc2nc1=O
  A = 102	B = 103	C = -26	D = -4
COc1ccc(CC(=O)N(Cc2ccccc2)C(C)C)cc1
  A = 102	B = 107	C = -36	D = -5
OC1CCCCC1N1CCC(c2ccccc2)CC1 (configuration not stated)
  A = 99&100	B = 99&101	C = -10&0	D = -32&-14

Other compounds:
Codes – A = PV pol inh; B = PV pol inh intensity; C = Mtb MenB inh; D = MbtI inh
CC(C)c1ccc(C2C(C#N)=C3N=C(N)c4ccccc4N3C3=C2C(=O)CCC3)cc1 (configuration not stated)
  A = 101	B = 105	C = -2	D = 0
C/C(N)=C(/C#N)C(=O)Cn1cc(S(=O)(=O)N2CCCC2)ccc1=O
  A = 110	B = 122	C = -10	D = -5
CCOC(=O)C1=C(C)Nc2ccccc2N=C1NC(=O)Cc1coc2cc(C)c(C)cc12
  A = 103	B = 107	C = -18	D = 6
CC1CN(C(=O)COC(=O)c2ccccc2NS(C)(=O)=O)CC(C)O1 (configuration not stated)
  A = 103	B = 106	C = -4	D = -39
CCC(Sc1nc(O)cc(=O)[nH]1)C(=O)Nc1nnc(C(C)C)s1 (configuration not stated)
  A = 102	B = 99	C = -99	D = 4
OCc1ccccc1O[C@@H]1O[C@H](CO)[C@@H](O)[C@H](O)[C@H]1O
  A = 103	B = 100	C = -10	D = -22
Nc1nn2c([n+]1N)N=C(c1ccccc1)C2
  A = 105	B = 106	C = 6	D = 16
COc1ccc2nc(SCC(=O)N3CCCCC3)c(C#N)cc2c1
  A = 107	B = 111	C = -22	D = -5
Cn1c(=O)n(C)c2cc(S(=O)(=O)N(Cc3ccccc3)C(=O)c3ccncc3)ccc21
  A = 101	B = 100	C = -16	D = 10
Cc1ccc(-n2cnnn2)cc1Cl
  A = 101	B = 100	C = 3	D = -1
CCC(C)(C)n1nnnc1C(c1cccnc1)N1CCCC(C)C1 (configuration not stated)
  A = 101	B = 102	C = 4	D = -3
CCNC(=S)N1CCC(n2cnc3ccccc32)CC1
  A = 102	B = 105	C = -14	D = -14
COc1cc2c(cc1OC)C(C(=O)N1CCCC1)C(c1ccccc1F)N(C)C2=O (configuration not stated)
  A = 101	B = 101	C = 3	D = 8
CC1CCc2c(cc(-c3ccccc3)n2-c2ccc(C(=O)NCCN3CCN(C)CC3)cc2)C1 (configuration not stated)
  A = 100	B = 104	C = -1	D = 7
CCn1nnc(NC(=O)c2sc3ccccc3c2Cl)n1
  A = 98	B = 90	C = -2	D = x
CCS(=O)(=O)c1ccccc1C(=O)O
  A = 105	B = 99	C = -55	D = -5
CCCC(C(=O)O)c1ccccc1 (configuration not stated)
  A = 100	B = 97	C = x	D = -5
CN1CCN(C(=O)c2cc3c(n(-c4ccccc4)c2=O)CCCC3=O)CC1
  A = 101	B = 103	C = -12	D = 19
